# Anaer choline gr – inhibitors of anaerobic choline-dependent gram-negative bacterial growth | Gram-negative bacterium anaerobic choline minimal medium, absorbance growth; active compounds read low; many inactives read as strong as hits in the columns shown | calls only | 55,000 compounds, 0.2% hits | AID 1963822;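 active means growth z-score on choline under -2 at 7 or 20 h with little or no fall on glycerol, limits in tiers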;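 further: stock transfer was 300 nL into about 50 µL; the organism is E. coli; final concentration not given here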
# Anaer choline gr early – also measured in Anaer choline gr; calls as there; z-score; measured here: choline growth z-score, timepoint 1;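 score of optical density at 7 h as mean of two plates; lower means less growth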
# An asterisk follows results filed as active; i = inactive; & = joins results of further samples.
SMILES,Anaer choline gr,Anaer choline gr early
CN(c1cccc(NC(=O)C2CCCN(S(=O)(=O)Cc3ccccc3Cl)C2)c1)S(C)(=O)=O (stereo not given),i,-1.2
O=C(Nc1ccc(F)c(Cl)c1)c1cc(-c2ccncc2)n[nH]1,i,-2.38
Cc1cccc(C)c1NS(=O)(=O)c1cn(C)cn1,i,-2.35
COc1ccc(S(=O)(=O)Nc2ccc(C3(C(=O)NCCC(C)C)CCC3)cc2)cc1OC,i,1.16
CCCCS(=N)(=O)CC[C@H](N)C(=O)O (stereo not given in full),i,-0.08
Cc1cc(NC(=O)CCc2nc(CSc3nc4ccccc4o3)no2)no1,i,0.27
CCCc1nc(-c2cc3ccccc3nc2N2CCN(C)CC2)no1,i,-1.76
CCN1CCCC1CNC(=O)c1cc(S(=O)(=O)CC)c(N)cc1OC (stereo not given),i,0.66&0.18&0.47&0.44
CC1CCN(S(=O)(=O)c2ccc3c(c2)N(CC(=O)N2CC(C)CC(C)C2)C(=O)CS3)CC1 (stereo not given),i,-0.24
Cc1nn(S(=O)(=O)c2ccc(C(C)(C)C)cc2)c(C)c1S(=O)(=O)N1CCCC1,i,1.57
O=C(NCCC1=CCCCC1)C1CCCN(S(=O)(=O)Cc2ccccc2)C1 (stereo not given),i,1.3
CCOC(=O)c1c(NC(=O)COc2ccc(Cl)cc2C)sc(C(=O)N2CCCCC2)c1C,i,-0.33
COc1ccc(OCC(=O)N2CCC3(CC2)Nc2cc(OC)ccc2-n2cccc23)cc1,i,-1.06
COc1ccc2c(c1)CCc1c-2n[nH]c1C(=O)NC1CCCCC1,i,-0.06
Cc1cccc2c(=O)cc(C(=O)Nc3nnc(CC(C)C)s3)oc12,i,-1.39
COCCNC(=O)C1CCCN(C(=O)c2ccc(NS(=O)(=O)c3ccc4c(c3)CCCC4)cc2)C1 (stereo not given),i,0.3
O=C(c1cnc2ccc(F)cc2c1Nc1ccccc1Cl)N1CCCCC1,i,-0.19
CCCNC(=O)Nc1ccc(-c2noc(-c3cccc(N(C)C)c3)n2)cc1,i,2.12
OC(CN1CCN(c2ccccn2)CC1)c1ccc2cc[nH]c2c1 (stereo not given),i,-1.08
COc1ccccc1CC(=O)Nc1ccc(-c2noc(COc3ccc(Br)cc3)n2)cc1,i,-0.5
O=C(NCCn1c(-c2ccncc2)nc2cccnc21)Nc1ccc2c(c1)OCCO2,i,-1.09
O=C(CCCN1CCC(O)(c2cccc(C(F)(F)F)c2)CC1)c1ccc(F)cc1,i,-0.61&-0.15
Cc1ccc(CC(=O)NCCc2nc(-c3ccc(C)cc3)n[nH]2)cc1,i,1.1
O=c1ccn(-c2ccc(Cl)cc2)nc1-c1nc(-c2ccccc2OCc2ccccc2)no1,i,2.17
Cc1cc(C)n2nc(CN(C(=O)CC(C)C)c3cccc(Cl)c3)nc2n1,i,-0.95
CC(C)c1cc(C(=O)N2CCOCC2)no1,i,1.01
COc1ccc(CSc2nccc3c2ccn3CC(=O)NCc2ccccn2)cc1,i,0.02
C[C@H](NC(=O)/C(C#N)=C/c1ccc(O)c(O)c1)c1ccccc1,i,0.22
CCOc1ccc(NS(=O)(=O)c2cc(-c3ccc4nncn4n3)ccc2C)cc1,i,0.52
COc1ccc(C2CC(=O)C3=C(C2)Nc2ccccc2NC3c2cc3c(cc2Cl)OCO3)cc1OC (stereo not given),i,-0.18

# Compounds above with an NH in an aromatic ring (4):
SMILES,Anaer choline gr,Anaer choline gr early
O=C(Nc1ccc(F)c(Cl)c1)c1cc(-c2ccncc2)n[nH]1,i,-2.38
COc1ccc2c(c1)CCc1c-2n[nH]c1C(=O)NC1CCCCC1,i,-0.06
OC(CN1CCN(c2ccccn2)CC1)c1ccc2cc[nH]c2c1 (stereo not given),i,-1.08
Cc1ccc(CC(=O)NCCc2nc(-c3ccc(C)cc3)n[nH]2)cc1,i,1.1

# Next part.
SMILES,Anaer choline gr,Anaer choline gr early
COc1ccc(OC)c(Nc2ncc3c(n2)CCNC3)c1,i,-1.29
CCN(CC)C(=O)C1(c2ccccc2)CC1CN (stereo not given),i,0.36
CCOC(=O)c1c(NC(=O)c2nn(-c3ccc(OCC)cc3)ccc2=O)sc(C)c1C,i,-0.46
CCOc1ccc(C2C3=C(CC(c4ccc(O)c(OC)c4)CC3=O)Nc3onc(C)c32)cc1 (stereo not given),i,-0.48
Cc1ccc(NC(=O)N(Cc2nnc3n2CCCCC3)c2ccccc2)cc1,i,-0.09
CC(=O)NCCc1csc(C2CCN(C(=O)C3CCC3)CC2)n1,i,-1.94
COC1=C(OC)C(=O)c2ccccc2C1=O,i,-1.65
COc1ccc(OC)c(S(=O)(=O)N2CCC(n3cnc4c(Cl)cccc4c3=O)CC2)c1,i,-0.15
CCOC(=O)c1cc(-c2ccc(C)cc2)n(CC(=O)Nc2cc(C)ccc2OC)c1C,i,-0.14
CN(CC1CCCO1)S(=O)(=O)c1ccc(C(=O)Nc2nc(-c3ccccn3)cs2)cc1 (stereo not given),i,-0.28
O=S(=O)(c1ccc(Cl)cc1)c1nc(-c2ccccc2)oc1NCc1ccco1,i,0.44
O=S(=O)(NCCc1cn2ccsc2n1)c1ccc(Oc2ccccc2)cc1,i,-0.33
Cc1cc(C(=O)NC(C)C)c2c(=O)n(C)c(=O)n(C)c2n1,i,-0.18
O=c1ccc(-c2ccc(F)cc2)nn1CCc1nc(-c2cccc(Br)c2)no1,i,0.79
C=CCn1c(SCC(=O)Nc2ccc(S(N)(=O)=O)cc2)nnc1-c1ccc(N)cc1,i,0.99
CC1CCN(S(=O)(=O)c2ccc3c(c2)CCC(=O)N3CC(=O)NCCN2CCOCC2)CC1,i,0.21
CCOc1ccc(NC(=O)Cn2c(=O)nc(NCc3ccccc3)c3ccccc32)cc1,i,0.98
CCN(Cc1ccccc1)C(=O)c1cc2cccnc2n(Cc2ccccc2)c1=O,i,-1.11
O=C(c1ccc2cccc(O)c2n1)N1CCC(N2CCCCC2)CC1,i,-2.22
Cc1c(C)n(-c2ccccc2)c2nc(C(=O)N3CCc4ccccc43)nc(N3CCCCC3)c12,i,0.32

# Quoted at random: 2 records from the list.
SMILES,Anaer choline gr,Anaer choline gr early
O=S(=O)(NCCc1cn2ccsc2n1)c1ccc(Oc2ccccc2)cc1,i,-0.33
O=C(c1ccc2cccc(O)c2n1)N1CCC(N2CCCCC2)CC1,i,-2.22

# Going on with the list.
SMILES,Anaer choline gr,Anaer choline gr early
COc1cccc(NC(=O)N2CCCN(C(=O)c3nonc3N)CC2)c1,i,-1.07
O=C(NCCc1c[nH]c2ccc(Cl)cc12)c1ccc(-n2nnc3cccnc32)cc1,i,0.66
COc1cccc(NC(=O)C2CCCN(S(=O)(=O)c3cc(-c4noc(C(C)C)n4)sc3C)C2)c1 (stereo not given),i,0.5
COc1ccc(-c2noc(CSCC(=O)N3CCC(C)CC3)n2)cc1OC,i,0.12
CC(C)NC(=O)CCn1c(=O)c2ccccc2n2c(SCc3cccc(Cl)c3)nnc12,i,-0.32
CN(C)C(=O)c1ccc2c(c1)nc(CN1CCN(S(=O)(=O)c3ccc(F)c(F)c3)CC1)n2C,i,-0.07
c1cc2c(cc1C1CCCCC1)c1c3n2CCNC3CCC1 (stereo not given),i,-4.58
CC1CCCN(c2nc3ncnc(SCC(=O)NC4CCCC4)c3s2)C1 (stereo not given),i,-2.26
CCc1ccccc1NC(=O)N(C)CCc1c(C)nn(C)c1C,i,0.74
CCOC(=O)c1cc(C)nc2c1c(=O)n(Cc1nc(-c3ccccc3C)oc1C)c(=O)n2C,i,-0.65
COc1ccc2c(c1)[C@H]1OCCC[C@H]1C(c1cc(Cl)c(OC)c(OC)c1)N2 (stereo not given in full),i,-0.29
Cc1nnc(-c2c(C)[nH]c(C)c2S(=O)(=O)NCCN(C)C)o1,i,0.02
O=C(CC1NCCNC1=O)OCc1ccccc1 (stereo not given),i,0.18
CC1(C)CC(=O)c2cnc3c(C(=O)NCc4ccccn4)cnn3c2C1,i,-2.01
COc1ccc(C2c3c(n(C)c4ccccc34)C(=O)N2CC(=O)NCc2cccc(Cl)c2)cc1 (stereo not given),i,0.68
CCc1cccc(NC(=O)COc2nc(CC)nc3ccccc23)c1,i,1.53
COc1cccc(Cn2nc3c(S(=O)(=O)N4CCc5ccccc5C4)cccn3c2=O)c1,i,0.73
COc1ccc(NC(=O)c2cc(S(=O)(=O)N3CCCC(C)C3)cn2C)c(OC)c1 (stereo not given),i,-0.68
O=C(c1ccc(CN2C(=O)CCn3nc(-c4ccc(Cl)cc4)cc32)cc1)N1CCCCC1,i,-1.02
CC(C)Oc1ccccc1CN1CCCC1c1cc(C(C)C)on1 (stereo not given),i,-0.48
Cc1ccc(CNc2ccc3[nH]c(=O)[nH]c3c2)cc1,i,-0.13
Cc1ccc2c(c1)N(CC(=O)O)C(=O)CO2,i,-0.28
COc1ccc(OC)c(C2C3=C(CC(c4ccc(O)cc4)CC3=O)Nc3onc(C)c32)c1 (stereo not given),i,0.51
c1ccc(CN2CCN(c3ccc4nnc(CCc5nc(-c6ccncc6)no5)n4n3)CC2)cc1,i,-0.4
CCOc1ccc(N(Cc2nc3nc(C)cc(=O)n3[nH]2)C(=O)C2CCCCC2)cc1,i,0.3
CCCc1cc(C2CCCN2Cc2ccc(OC)c(Br)c2)no1 (stereo not given),i,0.77
CC(C)(C)c1ccc(S(=O)(=O)n2ccnc2)cc1,i,-0.48
C=CCn1c(=O)c(=O)n(Cc2ccc(C(=O)NCCN(CC)CC)cc2)c2ccccc21,i,-0.06
Cc1cc(OCc2nc(C)c(C(=O)Nc3ccc4c(c3)OCO4)s2)ccc1Cl,i,-0.51
O=S(=O)(c1ccc(-c2nnc(C3CCC3)o2)s1)N1CCCCC1,i,0.61

# Full records, looked up by structure.
# Cc1ccc(CNc2ccc3[nH]c(=O)[nH]c3c2)cc1 reads Anaer choline gr: i; Anaer choline gr early: -0.13
# CCCc1cc(C2CCCN2Cc2ccc(OC)c(Br)c2)no1 (stereo not given) reads Anaer choline gr: i; Anaer choline gr early: 0.77
# CCOc1ccc(N(Cc2nc3nc(C)cc(=O)n3[nH]2)C(=O)C2CCCCC2)cc1 reads Anaer choline gr: i; Anaer choline gr early: 0.3

# Other records:
SMILES,Anaer choline gr,Anaer choline gr early
Cc1nnc(-c2coc(S(=O)(=O)N3CCN(C(C)C)CC3)c2)o1,i,-0.26
O=C(C1CCC(=O)N1S(=O)(=O)c1ccccc1)N1CCN(c2ccccn2)CC1 (stereo not given),i,0.19
COc1ccc(C)cc1NC(=O)Cn1cnc2c(nc3n2CCCCC3)c1=O,i,-0.05
CCCC(=O)Nc1onc2c1CC(C)CC2 (stereo not given),i,-0.52
CCOc1ccc(NS(=O)(=O)c2ccc3oc(=O)c4ncn(C)c4c3c2)cc1,i,1.7
O=C(NCCc1c[nH]c2ccccc12)c1cccc(NC(=O)c2nnc(COc3ccccc3)s2)c1,i,0.85
COc1ccc(Cl)cc1C(=O)NCCc1sc(-c2ccc(F)cc2)nc1C,i,1.28
Cc1ccccc1C1CC(c2ccc(NS(C)(=O)=O)cc2)=NN1C(=O)CCC(=O)O (stereo not given),i,-0.35
Cn1cc(C2=C(c3cn(CCCN)c4ccccc34)C(=O)NC2=O)c2ccccc21,i,-2.47
O=C(Nc1ccccc1)N1CCn2c1nc1ccccc12,i,-0.39
CC(C(=O)O)c1ccc2c(c1)[nH]c1ccc(Cl)cc12 (stereo not given),i,0.57&0.59
CCN(CC)CCn1c2ccccc2n2cc(-c3ccc(OC)c(OC)c3)nc12,i,0.59
CCSc1ncc2c(=O)n(CC(=O)N3CCCCC3C)cnc2n1 (stereo not given),i,-0.82
COc1ccc(OC)c(NC(=O)C2CCN(c3ncnc4onc(-c5ccc(F)cc5)c34)CC2)c1,i,0.1
COc1cccc(C2C3=C(CC(c4ccccc4O)CC3=O)Nc3onc(C)c32)c1 (stereo not given),i,-1.45
COc1ccccc1OCC(=O)NC(c1ccc(F)cc1)c1nnc(-c2ccccc2)o1 (stereo not given),i,2.4
Cc1ccc(NC(=O)CN2C(=O)CC(c3ccccc3)=Nc3ccccc32)cc1,i,0.14
CCn1c(=O)c(=O)n(CC)c2cc(N3CCCCC3)c(NC(=O)CN3CCOCC3)cc21,i,-1.25
Cn1c(=O)c2c(-c3ccc(Cl)cc3)c(NCCc3ccccc3)oc2n(C)c1=O,i,-0.98
Cc1ncc(C(=O)Nc2ccccc2F)c(C)n1,i,-1.23
O=C(CCCn1c(=O)[nH]c2ccsc2c1=O)NCCCN1CCN(c2cccc(Cl)c2)CC1,i,0.37
COc1ccc(OC)c(NC(=O)N2CCN(c3cc(-c4ccc(OC)c(OC)c4)ncn3)CC2)c1,i,1.25
CCOc1ccc2nc(N3CCC(C(=O)Nc4ccc(Cl)cc4)CC3)sc2c1,i,-0.85
CN(C(=O)c1ccc(-c2cc(N3CCOCC3)ncn2)cc1)C1CCCCC1,i,-0.12
O=S(=O)(NCc1cccn1Cc1cccc(F)c1)c1ccc(Cl)cc1,i,1.3
CCOC(=O)c1nc2cc(C)c(C)cc2nc1NCCC1=CCCCC1,i,1.43
Cc1ccc(-c2c(Nc3cccc(F)c3)c(=O)c2=O)cc1,i,0.04
Cn1c(SCC(=O)NCc2ccccc2Cl)nc2c(-c3ccccc3)csc2c1=O,i,0.98
CC(NC(=O)c1cnn2c(-c3ccccc3)ccnc12)c1ccccc1 (stereo not given),i,0.47
CCOC(=O)c1[nH]c(C)c(CN(Cc2ccc(C)cc2)S(C)(=O)=O)c1C,i,0.4
COCCNC(=O)c1sc(COc2cccc(C)c2)nc1C,i,0.62
COc1ccc(C2CC(=O)C3=C(C2)Nc2onc(C)c2C3c2ccc(Cl)cc2)cc1OC (stereo not given),i,-0.13

# 3 of the entries above in order of their number in Anaer choline gr early, high to low:
SMILES,Anaer choline gr,Anaer choline gr early
Cn1c(SCC(=O)NCc2ccccc2Cl)nc2c(-c3ccccc3)csc2c1=O,i,0.98
CCOC(=O)c1[nH]c(C)c(CN(Cc2ccc(C)cc2)S(C)(=O)=O)c1C,i,0.4
CCOc1ccc2nc(N3CCC(C(=O)Nc4ccc(Cl)cc4)CC3)sc2c1,i,-0.85

# These rows are one share of the data; rates above refer to the full screens.
